Screening data (PubChem BioAssay)
PMP22 txn prim – modulates PMP22 transcription in S16 Schwann cells | S16 Pmp22-F2sN Schwann cells (luciferase reporters placed in the Pmp22 gene), FLuc/NLuc coincidence luminescence, 24 h | Potency, µM (titrated, usually from 57.5 µM), without a hit: at the top dose activity change, negative = inhibition, most hits filed as inhibitors | 43,000 tested, 2% active; active = clear falling dose curves in both reporters; inconclusive = both reporters move, but less clearly or upward; inactive = either reporter flat; the % is the NLuc reporter signal; also: % is scaled to controls: 0 for no effect and ±100 for the full control effect; some results filed as inactive show a strong effect at the top dose
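Rat S16 Pmp22-F2sN cells, 500-1,000/well in phenol red-free DMEM + 10% FBS, compound-treated 24 h (37C, 5% CO2). Luminescence: FLuc read, Stop&Glo added, NLuc read.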
HTT prom inh – HTT promoter inhibition; HEK293 HTT promoter firefly luciferase reporter (activity 0% = vehicle and -100% = no light), 24 h; Potency, µM (titrated, usually from 57.5 µM), for the others: at the highest dose activity change, negative = inhibition, usual class: inhibitors; 48,000 tested, 0.93% active; AID 1508623; active = well fitted inhibition curve with a large enough effect; inconclusive = small, poorly fitted or top-dose-only effect; inactive = no such curve, though single readings can be large or run the other way; also: nearly all actives have a fitted effect of over 50% in size
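Firefly luciferase signal from promoter-reporter HEK293 cells was scaled between vehicle (0%) and zero RLU (-100%). Compounds were tested at final concentrations of up to 57.5 uM over 24 h at 37 degrees C. PTC124 at 50 uM final served as control inhibitor.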
Active calls of the source: *; [ ] = another dose, or the depositor's remark. Potency is read from the fitted curve at half-maximal effect.

How did CCOc1ccc(-c2nonc2NC(=O)c2oc3ccc(Br)cc3c2C)cc1 do in these assays?
PMP22 txn prim: inconclusive; HTT prom inh: inconclusive

Results for CCC1Oc2ccc(C)cc2N(CC(=O)NCCc2ccccc2)C1=O (configuration not stated) ?
PMP22 txn prim: -9%; HTT prom inh: -17%

What do the screens show for `Cc1c(Cl)cccc1NC(=O)C1CCCN(c2ncnc3onc(C)c23)C1` (configuration not stated)?
PMP22 txn prim: -31%; HTT prom inh: -14%

How did Cc1cc(NC(=O)C2CCN(S(=O)(=O)c3cccc4nsnc34)CC2)ccc1Br do in these assays?
PMP22 txn prim: inconclusive; HTT prom inh: inconclusive

What do the screens show for `O=C(CSc1nccn1Cc1ccc(F)cc1)NCc1ccc(F)cc1`?
PMP22 txn prim: -15%; HTT prom inh: -16%

Results for CC1CCc2nc3ncn(CC(=O)Nc4cccc(C#N)c4)c(=O)c3cc2C1 (configuration not stated) ?
PMP22 txn prim: -15%; HTT prom inh: -12%

What do the screens show for `CCOC(=O)c1ccc(N2C(=O)c3n[nH]c(-c4ccco4)c3C2c2ccc(O)c(OCC)c2)cc1` (configuration not stated)?
PMP22 txn prim: inconclusive; HTT prom inh: inconclusive

What do the screens show for `CCOC(=O)c1cccc(NC(=O)c2cc(C)nc3c2c(C)nn3-c2ccc(C)cc2)c1`?
PMP22 txn prim: -2%; HTT prom inh: inconclusive

What do the screens show for `CCOc1ccc(NC(=O)Cn2ccn(-c3ccc(F)c(F)c3)c(=O)c2=O)cc1`?
PMP22 txn prim: -16%; HTT prom inh: -7%

Results for CC(C)CCN1C(=O)c2ccccc2CC1(C)C(=O)NC1CCCCC1 (configuration not stated) ?
PMP22 txn prim: 0%; HTT prom inh: -22%

Results for O=C(Nc1ccc2oc(-c3ccc4ccccc4c3)nc2c1)c1ccccc1F ?
PMP22 txn prim: 1%; HTT prom inh: -5%

Results for CCCn1c(=O)c2sccc2n2c(CCCC(=O)Nc3ccc(C)c(F)c3)nnc12 ?
PMP22 txn prim: -8%; HTT prom inh: -12%

Results for CCC(=O)Nc1ccccc1-c1nc2ccccc2n(CC(=O)c2ccc(Cl)cc2)c1=O ?
PMP22 txn prim: inconclusive; HTT prom inh: 63%[activator]

What do the screens show for `Cc1cccc(NC(=O)C2(C)Cc3ccccc3C(=O)O2)c1` (configuration not stated)?
PMP22 txn prim: -24%; HTT prom inh: 5%

Results for O=C1c2[nH]nc(-c3ccccc3O)c2C(c2ccc(Cl)cc2)N1CCc1ccccc1 (configuration not stated) ?
PMP22 txn prim: inconclusive; HTT prom inh: inconclusive

How did COc1ccc(NC(=O)Cn2c(=O)n(-c3ccc(CC(=O)NCC4CCCO4)cc3)c(=O)c3ccccc32)c(OC)c1 (configuration not stated) do in these assays?
PMP22 txn prim: 2%; HTT prom inh: -7%

How did COc1cc(C(=O)N2CCC(c3nc4ccccc4o3)CC2)cc(OC)c1OC do in these assays?
PMP22 txn prim: -4%; HTT prom inh: 0%

Results for CCOc1ccc(CNC(=O)c2ccc(NC(=O)N3CCSc4ncccc43)cc2)cc1OC ?
PMP22 txn prim: 6%; HTT prom inh: -16%

Results for CC(C)c1ccc(NC(=O)CN2C(=O)COc3ccc(S(=O)(=O)N4CCCCC4)cc32)cc1 ?
PMP22 txn prim: -4%; HTT prom inh: -28%

How did CCCCC(=O)NC1(C(F)(F)F)C(=O)Nc2c1c(=O)[nH]c(=O)n2-c1ccc(C)c(C)c1 (configuration not stated) do in these assays?
PMP22 txn prim: -5%; HTT prom inh: -9%

How did COc1ccc(NC(=O)c2c(N)c(C(=O)c3ccc(C)cc3)n3ccccc23)cc1OC do in these assays?
PMP22 txn prim: -36%; HTT prom inh: -7%

What do the screens show for `Cc1c(-c2nc(-c3ccc4c(c3)[nH]c(=O)n4C)no2)cccc1[N+](=O)[O-]`?
PMP22 txn prim: -1%; HTT prom inh: -13%

What do the screens show for `COc1ccc(NC(=O)CCc2nnc3n(C)c(=O)c4sccc4n23)cc1`?
PMP22 txn prim: -13%; HTT prom inh: 8%

What do the screens show for `COc1cccc(NC(=O)c2cccc3c(=O)c4c([nH]c23)CCCC4)c1`?
PMP22 txn prim: inconclusive; HTT prom inh: inconclusive

How did CCOc1cccc(CC(=O)N2CCc3c([nH]c4ccc(OC)cc34)C2c2ccc(F)cc2)c1OCC (configuration not stated) do in these assays?
PMP22 txn prim: -9%; HTT prom inh: -21%

What do the screens show for `Cc1ccc(C)c(CN2C(=O)c3ccccc3Sc3ccc(C(=O)NCc4cccs4)cc32)c1`?
PMP22 txn prim: 15%; HTT prom inh: inconclusive

Results for CCc1ccccc1NC(=O)c1cc(S(=O)(=O)N2CCC(C)CC2)cn1C ?
PMP22 txn prim: inconclusive; HTT prom inh: -20%

Results for O=C(COc1ccc(F)cc1)Nc1ccc2nc(SCc3ccccc3)sc2c1 ?
PMP22 txn prim: 7µM*; HTT prom inh: 6%

What do the screens show for `CCOC(=O)c1cc(-c2ccccc2)n(CCC(=O)NCCc2ccccc2)c1C`?
PMP22 txn prim: inconclusive; HTT prom inh: -26%

Results for COc1ccc(NC(=O)C(=O)NCCc2csc(-c3ccc(Cl)cc3)n2)cc1OC ?
PMP22 txn prim: inconclusive; HTT prom inh: -30%

What do the screens show for `CCOC(=O)c1ccc2c(c1)N(CC(=O)Nc1ccc(CC)cc1)C(=O)c1ccccc1S2`?
PMP22 txn prim: inconclusive; HTT prom inh: -17%

How did Cc1ccc(NC(=O)CSc2nncn2C)c(C)c1 do in these assays?
PMP22 txn prim: -10%; HTT prom inh: 11%

How did CCCOc1ccc(C(=O)NCC(c2ccc(OC)cc2)N2CCCCC2)cc1 (configuration not stated) do in these assays?
PMP22 txn prim: -32%; HTT prom inh: -10%

What do the screens show for `Cc1ccc(NC(=O)CN2CCCN(Cc3ccccc3Cl)S2(=O)=O)c(C)c1`?
PMP22 txn prim: -10%; HTT prom inh: -9%

What do the screens show for `CC(C)S(=O)(=O)c1oc(-c2cccs2)nc1S(=O)(=O)c1ccc(F)cc1`?
PMP22 txn prim: 1.7µM*; HTT prom inh: inconclusive

Results for CCOc1ccc(N2CC(c3nc4ccccc4n3CCOc3ccc(OC)cc3)CC2=O)cc1 (configuration not stated) ?
PMP22 txn prim: -7%; HTT prom inh: -25%

What do the screens show for `Cc1ccc(Cl)cc1N1C(=O)N(Cc2ccc(C#N)cc2)c2ccccc2S1(=O)=O`?
PMP22 txn prim: -26%; HTT prom inh: inconclusive

What do the screens show for `Cc1ccc(NC(=O)c2cc(S(=O)(=O)NCCC3=CCCCC3)ccc2F)cc1C`?
PMP22 txn prim: inconclusive; HTT prom inh: 28µM*

Results for Cc1cc(C)c(NC(=O)CSc2nccn2-c2cccc(Cl)c2)c(C)c1 ?
PMP22 txn prim: inconclusive; HTT prom inh: inconclusive

What do the screens show for `CCN(CC)S(=O)(=O)c1cc(-c2onc(C)c2C)ccc1OC`?
PMP22 txn prim: inconclusive; HTT prom inh: -17%

How did Cc1oc2ncnc(N3CCOCC3)c2c1C(=O)NCCc1ccccc1 do in these assays?
PMP22 txn prim: 0%; HTT prom inh: 20%

Results for Cc1cn2c(=O)cc(COC(=O)c3cccc(NC(=O)C(C)Oc4ccccc4)c3)nc2s1 (configuration not stated) ?
PMP22 txn prim: 8%; HTT prom inh: -29%

Results for O=C(NC1CCCc2ccccc21)c1ccc2c(c1)sc1nc(-c3ccc(F)cc3)cn12 (configuration not stated) ?
PMP22 txn prim: inconclusive; HTT prom inh: 10%

Results for CCN(CC)c1ccc(NS(=O)(=O)c2cc(-c3cc(C)no3)ccc2C)c(C)c1 ?
PMP22 txn prim: inconclusive; HTT prom inh: inconclusive

What do the screens show for `Cc1ccc(C(=O)Nc2ccc(OCc3cc(=O)n4c5c(sc4n3)CCCC5)cc2)cc1`?
PMP22 txn prim: 3%; HTT prom inh: -25%

How did COc1ccc(C2CC(=O)c3cc(-c4nc(-c5cccc(Cl)c5)cs4)c(=O)[nH]c3C2)cc1OC (configuration not stated) do in these assays?
PMP22 txn prim: inconclusive; HTT prom inh: -8%

What do the screens show for `O=C(CCC1N=C2c3ccccc3N=C(SCc3cccc(F)c3)N2C1=O)NCCc1ccccc1` (configuration not stated)?
PMP22 txn prim: inconclusive; HTT prom inh: inconclusive

What do the screens show for `CCOC(=O)c1cc(-c2ccccc2)n(CC(=O)Nc2ccc(OC)cc2OC)c1C`?
PMP22 txn prim: inconclusive; HTT prom inh: -16%

How did Cc1ccc2c(c1)NC(=O)C(CC(=O)Nc1cc(Cl)ccc1C)O2 (configuration not stated) do in these assays?
PMP22 txn prim: -9%; HTT prom inh: -7%

What do the screens show for `O=C(Cn1c(=O)n2nc(-c3ccccc3)nc2c2ccccc21)Nc1ccccc1C(F)(F)F`?
PMP22 txn prim: -7%; HTT prom inh: -5%

How did COc1ccc(OC)c(NC(=O)c2csnn2)c1 do in these assays?
PMP22 txn prim: -22%; HTT prom inh: 3%

What do the screens show for `Cc1c(Cl)cccc1NC(=O)Nc1nnc(N(C)C2CCCCC2)s1`?
PMP22 txn prim: inconclusive; HTT prom inh: -2%

Results for CCc1nnc2c3ccccc3nc(N3CCN(c4cc(Cl)ccc4C)CC3)n12 ?
PMP22 txn prim: -11%; HTT prom inh: -24%[11.5 µM]

How did O=C(CC1Oc2ccc(Cl)cc2NC1=O)NCc1ccccc1 (configuration not stated) do in these assays?
PMP22 txn prim: -20%; HTT prom inh: -6%

Results for COc1ccc(CCC(=O)NCc2ccc3c(c2)CCN3C(=O)c2cccc(C)c2)cc1 ?
PMP22 txn prim: inconclusive; HTT prom inh: inconclusive

How did Cc1nc2ccccc2n1CCc1nc2c3ccccc3nc(SCC(=O)Nc3cccc(C(F)(F)F)c3)n2n1 do in these assays?
PMP22 txn prim: inconclusive; HTT prom inh: -18%

How did CC(=O)c1ccc(NC(=O)c2sc(-n3nc(C)c(Cc4ccccc4)c3C)nc2C)cc1 do in these assays?
PMP22 txn prim: inconclusive; HTT prom inh: 3%

How did COc1cc(-c2cc3n(C)c(C)c(CCC(=O)NC4CCC(C)CC4)c(=O)n3n2)cc(OC)c1OC (configuration not stated) do in these assays?
PMP22 txn prim: -14%; HTT prom inh: 21%

How did COc1ccc(-c2cc3ccc(O)c(CN4CCCC4)c3oc2=O)cc1OC do in these assays?
PMP22 txn prim: -10%; HTT prom inh: 41%[activator]

How did COc1ccc(-n2cc(-c3ccccc3)nc2SCC(=O)Nc2ccccc2C)cc1 do in these assays?
PMP22 txn prim: inconclusive; HTT prom inh: -24%

Results for O=C(NCc1ccccc1)N1CCc2c(sc3c2CCCC3)C1c1ccccc1 (configuration not stated) ?
PMP22 txn prim: 7.8µM*; HTT prom inh: inconclusive

Results for CN1CCCC(CC2c3ccccc3Sc3ccccc32)C1 (configuration not stated) ?
HTT prom inh: inconclusive

Results for CS(=O)(=O)N(CC(=O)NCCc1ccccc1)c1cc(C(F)(F)F)ccc1Cl ?
PMP22 txn prim: 16%; HTT prom inh: -10%

How did COc1cc(NC(=O)C2CCN(S(=O)(=O)c3c(C)noc3/C=C/c3cccs3)CC2)cc(OC)c1 do in these assays?
PMP22 txn prim: -2%; HTT prom inh: inconclusive

What do the screens show for `COc1cc(NC(=O)Cn2c(=O)nc(-c3ccccc3F)c3cc(Cl)ccc32)cc(OC)c1`?
PMP22 txn prim: inconclusive; HTT prom inh: inconclusive

How did Cc1nn(-c2ccc(F)cc2)c(-n2cccc2)c1C(=O)NCCCN1CCN(c2ccccc2F)CC1 do in these assays?
PMP22 txn prim: inconclusive; HTT prom inh: inconclusive

Two compounds drawn at random from the list so far:
Results for CN1CCCC(CC2c3ccccc3Sc3ccccc32)C1 (configuration not stated) ?
HTT prom inh: inconclusive

How did Cc1nn(-c2ccc(F)cc2)c(-n2cccc2)c1C(=O)NCCCN1CCN(c2ccccc2F)CC1 do in these assays?
PMP22 txn prim: inconclusive; HTT prom inh: inconclusive

Grouped by structure, the compounds so far with an NH in an aromatic ring
What do the screens show for `CCOC(=O)c1ccc(N2C(=O)c3n[nH]c(-c4ccco4)c3C2c2ccc(O)c(OCC)c2)cc1` (configuration not stated)?
PMP22 txn prim: inconclusive; HTT prom inh: inconclusive

Results for O=C1c2[nH]nc(-c3ccccc3O)c2C(c2ccc(Cl)cc2)N1CCc1ccccc1 (configuration not stated) ?
PMP22 txn prim: inconclusive; HTT prom inh: inconclusive

How did CCCCC(=O)NC1(C(F)(F)F)C(=O)Nc2c1c(=O)[nH]c(=O)n2-c1ccc(C)c(C)c1 (configuration not stated) do in these assays?
PMP22 txn prim: -5%; HTT prom inh: -9%

What do the screens show for `Cc1c(-c2nc(-c3ccc4c(c3)[nH]c(=O)n4C)no2)cccc1[N+](=O)[O-]`?
PMP22 txn prim: -1%; HTT prom inh: -13%

What do the screens show for `COc1cccc(NC(=O)c2cccc3c(=O)c4c([nH]c23)CCCC4)c1`?
PMP22 txn prim: inconclusive; HTT prom inh: inconclusive

How did CCOc1cccc(CC(=O)N2CCc3c([nH]c4ccc(OC)cc34)C2c2ccc(F)cc2)c1OCC (configuration not stated) do in these assays?
PMP22 txn prim: -9%; HTT prom inh: -21%

How did COc1ccc(C2CC(=O)c3cc(-c4nc(-c5cccc(Cl)c5)cs4)c(=O)[nH]c3C2)cc1OC (configuration not stated) do in these assays?
PMP22 txn prim: inconclusive; HTT prom inh: -8%

Only part of the results is shown; the hit share may differ from the screen's.
